Compound activity from PubChem.
E coli growth = blocks Escherichia coli growth; OD600, 23 h; hits give low values; OD600 absorbance (no concentration beside the values); 330,000 compounds, 0.21% hits;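 active = OD600 absorbance below the run mean of sample wells minus 3.6 SD, in any replicate, cut at about 0.56 in these data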;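 also: stock transfer was 300 nL into about 60 µL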
HNF4A DNA FP = change in binding of human HNF4 alpha to DNA; 360,000 compounds, 0.3% hits; AID 1224865; activity change, % at 10 µM; HNF4a-FITC DNA binding, fluorescence polarization, 1 h; in the data active = activity change above about 30%, passing the limit was not always enough;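 also: controls were the assay level and a saturating level of protein; the project sought stronger binding though the title names inhibitors; some compounds called inactive have numbers as strong as hits; positive values seem to mean higher polarization but the record does not say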
B2AR ag = agonists of human beta-2 adrenergic receptor inducing internalization | P07550 | 340,000 compounds, 0.43% hits | AID 504454 | response, % (no concentration beside the values) | Am2.2-beta2AR cells, FAP receptor internalization, flow cytometry; reference of the scale not given here;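 active = response above a set limit, near 3 SD of response in nonfluorescent compounds, cut at about 42% in these data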;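 also: stock transfer was 100 nL into about 11 µL; a reference agonist was the positive control; negative values mostly stem from fluorescent compounds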
LANA-H2A inh = blocks KSHV LANA binding to histone H2A/H2B; 320,000 compounds, 0.6% hits; cell-free LANA-H2A/H2B peptide, fluorescence polarization; Q9QR71; inhibition, % (concentration not given with the values); in the data active = inhibition mostly above about 10%, no sharp cut-off; inactive = mostly below about 6.7%;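 also: stock transfer was 7.5 nL into about 10 µL; 0% = median of vehicle wells and 100% = median of positive control wells; one replicate is shown; the record names a cut of 25% in any replicate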
Target sequence (Q9QR71 whole entry, looked up): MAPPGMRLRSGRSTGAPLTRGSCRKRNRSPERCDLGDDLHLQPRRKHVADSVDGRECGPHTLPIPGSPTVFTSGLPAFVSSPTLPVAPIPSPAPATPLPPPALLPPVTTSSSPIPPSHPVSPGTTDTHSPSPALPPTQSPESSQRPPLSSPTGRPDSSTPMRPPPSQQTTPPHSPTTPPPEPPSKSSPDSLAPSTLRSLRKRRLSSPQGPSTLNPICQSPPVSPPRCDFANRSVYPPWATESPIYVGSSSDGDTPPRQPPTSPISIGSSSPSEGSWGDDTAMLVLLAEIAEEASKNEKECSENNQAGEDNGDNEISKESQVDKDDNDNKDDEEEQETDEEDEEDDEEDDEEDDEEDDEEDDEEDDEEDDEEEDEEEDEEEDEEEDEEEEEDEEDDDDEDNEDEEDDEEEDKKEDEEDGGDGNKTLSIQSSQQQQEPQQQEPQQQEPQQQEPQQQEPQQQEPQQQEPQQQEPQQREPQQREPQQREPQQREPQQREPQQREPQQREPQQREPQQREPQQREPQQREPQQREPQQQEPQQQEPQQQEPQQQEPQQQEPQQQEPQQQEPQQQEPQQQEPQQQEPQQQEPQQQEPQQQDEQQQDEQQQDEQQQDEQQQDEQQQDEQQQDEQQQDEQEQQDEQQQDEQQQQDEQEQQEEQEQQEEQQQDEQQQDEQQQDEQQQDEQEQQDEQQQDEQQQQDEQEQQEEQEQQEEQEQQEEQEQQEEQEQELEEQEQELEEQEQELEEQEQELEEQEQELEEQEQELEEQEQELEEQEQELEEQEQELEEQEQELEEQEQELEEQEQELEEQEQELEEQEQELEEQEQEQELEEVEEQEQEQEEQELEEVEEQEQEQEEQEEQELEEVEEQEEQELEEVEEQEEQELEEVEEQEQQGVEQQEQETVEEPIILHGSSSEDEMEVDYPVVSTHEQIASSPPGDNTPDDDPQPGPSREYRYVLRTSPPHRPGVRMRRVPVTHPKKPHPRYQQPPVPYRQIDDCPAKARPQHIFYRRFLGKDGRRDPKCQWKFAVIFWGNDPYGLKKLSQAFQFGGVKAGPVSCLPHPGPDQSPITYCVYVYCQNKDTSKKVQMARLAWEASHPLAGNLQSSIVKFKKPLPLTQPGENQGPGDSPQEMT
UCH37 DUB inh = blocks the human deubiquitinase UCH37 | Q9Y5K5 | 330,000 compounds, 0.33% hits | inhibition, % (concentration not given with the values) | purified proteasome/UCH37, Ub-AMC cleavage fluorescence;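 active = mean of two replicates above 20%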;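 also: 0% = compound-free wells with enzyme and 100% = wells lacking proteasome; stock transfer was 100 nL into about 20 µL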
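Material: human UCH37 enzyme supplied as purified proteasome complex / Amount: 0.15 nM proteasome as dispensed / Buffer or medium: pH 7.4 Tris-HCl (50 mM) with ovalbumin, ATP-MgCl2, DTT / Times: preincubation 30 min, reaction 25 min, room temperature / Technique: AMC fluorescence from Ub-AMC cleavage, excitation 355 nm, emission 460 nm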
Vif TR-FRET = inhibitors of Vif binding to APOBEC3G peptide, primary screen, biochemical, TR-FRET, GST-Vif 1-94, biotin-A3G peptide, dose response retest (AID 1117319); TR-FRET GST-Vif / biotin-A3G peptide binding; higher % means a stronger effect; test concentration not given here; strong numbers were not always called active; inhibition, %, or IC50 in µM where a hit was titrated; 260,000 compounds, 0.57% hits;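 active = above the screen mean plus three standard deviations and confirmed in dose response; inconclusive = results disagree or hit not tested in dose response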;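 also: Vif residues 1-94 fused to GST binding biotinylated APOBEC3G peptide 110-148; 0% = full assay without inhibitor and 100% = GST in place of GST-Vif; retest series ran down from 100 µM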
A1 inh = inhibitors of the anti-apoptotic protein A1, read as caspase activation | MEF A1-2A-BIM cells, Caspase-Glo 3/7 luminescence, 3 h; percent of clofoctol response, vehicle zero | caspase activation, % (test concentration not listed) | 330,000 compounds, 0.066% hits;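 active = over half of replicate activation scores above 10%, or exactly half above 10 with the replicate mean above 10; inconclusive = replicate mean below 10 yet half the replicates above 10; inactive = over half of replicates below 10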;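 also: wells of about 30 µL received 50 nL stock; many hits fall short of the cut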
Numbers without * were called inactive; ? = inconclusive; · = no result given.

SMILES	E coli growth	HNF4A DNA FP	B2AR ag	LANA-H2A inh	UCH37 DUB inh	Vif TR-FRET	A1 inh
CCCCCC(=O)Nc1cc(S(=O)(=O)N2CCOCC2)ccc1Oc1ccc(OCC)cc1	0.69	-3.3	6.0	7.4	-0.5	-2.8%	0.2
CN1CCN(C(=O)c2ccc3c(=O)n(Cc4ccc(Cl)cc4)c(=S)[nH]c3c2)CC1	0.663	1.8	3.5	3.3	2.7	0.3%	0.4
O=S(=O)(CCc1nnc(-c2ccc(Br)cc2)o1)c1ccc(Cl)cc1	0.696	-1.5	-4.6	-2.9	0.8	-2.7%	-0.1
COc1ccc(C(=O)C2CCCN(C(=O)c3ccc(CSC)o3)C2)cc1F (stereo not given)	0.675	-0.5	4.6	-0.5	1.1	·	1.1
Cc1nn(-c2ccccc2)c2c1C(c1ccc([N+](=O)[O-])cc1)N1C(=N2)C(=O)Nc2ccccc21 (stereo not given)	0.705	-5.0	0.8	1.4	7.4	2.1%	0.2
O=c1ccc(Cc2ccc(Cl)cc2)n[nH]1	0.705	6.3	-5.4	0.5	1.1	-5.1%	0.3
CSc1ccccc1OCc1cc(C(=O)NCCC2=CCCCC2)no1	0.733	0.5	-9.6	-2.6	3.8	12.8%	0.7
Cc1cc(C)nc(NC(=O)c2cccs2)c1	0.704	1.8	-2.0	0.2	-0.3	·	-0.7
COCCNC(=O)NC12CC3(C)CC(C)(CC(C)(C3)C1)C2	0.725	0.8	-3.5	-1.2	0.8	6.5%	-0.4
O=C(CCc1nc(-c2ccccc2)c(-c2ccccc2)o1)OCc1ccc(Cl)cc1	0.701	-2.3	15.8	9.7	-0.5	-2.0%	0.2
C=CCc1cccc(C=Nc2cccn3cc(-c4ccccc4)nc23)c1O	0.663	-3.7	-18.6	-1.5	-17.8	-9.9%	-4.3
CC1CN(C(=O)CN2C(=O)NC3(CCCCCCC3)C2=O)CC(C)O1 (stereo not given)	0.618	-3.1	5.3	0.7	0.3	3.1%	-0.9
CCOc1ccc(N(Cc2cc3cc(OC)ccc3[nH]c2=O)C(=O)C2CCCO2)cc1 (stereo not given)	0.754	0.4	0.9	-0.6	-51.0	1.5%	-0.2
CCOC(=O)C1=C(O)/C(=C\c2ccc(CNS(=O)(=O)c3ccc(Br)cc3)o2)N=C1C	0.663	15.7	-11.4	-1.1	1.4	·	-1.0
Cn1c(=O)oc2cc(S(=O)(=O)NC3CCN(Cc4ccccc4)CC3)ccc21	0.763	-0.4	-20.3	-2.1	2.1	-6.1%	0.3
CC(C)C(OC(=O)Cn1nnc2ccccc21)C(=O)NC1CCCC1 (stereo not given)	0.707	0.5	3.9	-1.6	3.4	·	0.3
CN(CCc1ccccn1)C(=O)CCC1CCCN(C(=O)c2ccc3c(c2)OCCO3)C1 (stereo not given)	0.709	-2.0	-1.2	-1.4	1.3	7.2%	0.7
COc1ccc(NC(C)=O)cc1CNC(=O)COc1c(C)c(C)cc(C)c1C	0.637	-1.6	6.7	4.3	1.1	2.7%	0.5
COc1ccc(NC(=O)C2CC(=O)OC23CCCCC3)cc1 (stereo not given)	0.683	-1.9	3.5	0.7	1.1	-3.6%	0.1
O=C(c1ccc(Br)c(S(=O)(=O)N2CCOCC2)c1)N1CCN(C/C=C/c2ccccc2)CC1	0.689	2.9	0.5	·	1.5	·	·
COc1ccc(N/N=C(/C#N)S(=O)(=O)c2nsc(C)c2C#N)cc1	·	1.8	11.7	1.1	·	1.6%	-1.3
COCc1nnc(NC(=O)c2ccc(S(=O)(=O)N3CCCCCC3)cc2)o1	0.748	2.2	6.3	-1.7	4.1	-1.8%	1.2
Cc1ccc(C)c(S(=O)(=O)NCc2ccc(C(=O)N3CCN(c4ccccc4)CC3)cc2)c1	0.701	1.6	13.2	2.7	0.9	·	?
O=C(O)c1ccc(Cn2ccc3ccccc32)o1	0.711	-0.8	4.4	-6.9	3.2	?	1.9
COc1cccc(C(C(=O)NC2CCCC2)N(Cc2ccc(C)cc2)C(=O)c2ccco2)c1OC (stereo not given)	0.689	1.7	1.4	1.8	0.5	26.4%	1.0

The last five entries of the part above open the next one:
SMILES	E coli growth	HNF4A DNA FP	B2AR ag	LANA-H2A inh	UCH37 DUB inh	Vif TR-FRET	A1 inh
COc1ccc(N/N=C(/C#N)S(=O)(=O)c2nsc(C)c2C#N)cc1	·	1.8	11.7	1.1	·	1.6%	-1.3
COCc1nnc(NC(=O)c2ccc(S(=O)(=O)N3CCCCCC3)cc2)o1	0.748	2.2	6.3	-1.7	4.1	-1.8%	1.2
Cc1ccc(C)c(S(=O)(=O)NCc2ccc(C(=O)N3CCN(c4ccccc4)CC3)cc2)c1	0.701	1.6	13.2	2.7	0.9	·	?
O=C(O)c1ccc(Cn2ccc3ccccc32)o1	0.711	-0.8	4.4	-6.9	3.2	?	1.9
COc1cccc(C(C(=O)NC2CCCC2)N(Cc2ccc(C)cc2)C(=O)c2ccco2)c1OC (stereo not given)	0.689	1.7	1.4	1.8	0.5	26.4%	1.0
COc1cccc(N(CC(=O)NCC2CCCO2)C(=O)CNS(=O)(=O)c2ccccc2)c1 (stereo not given)	0.773	-2.4	-8.4	1.9	4.7	10.3%	0.6
CCOC(=O)c1c(-c2ccc(F)cc2)csc1NC(=O)C1CC=CCC1C(=O)O (stereo not given)	0.655	1.8	9.9	1.6	5.8	·	0.6
CCCCOC(=O)Nc1nc2ccc([N+](=O)[O-])cc2s1	0.672	0.1	6.0	2.4	0.9	2.6%	0.6
Cc1ccccc1-n1ncc2c(SCC(=O)NC3CCCC3)ncnc21	0.693	-1.3	-4.9	13.2	6.3	·	1.0
Nc1cc(N)nc(SCC(=O)Nc2ccccc2N2CCOCC2)n1	0.681	-0.3	-8.1	14.5*	-0.6	7.2%	-0.1
COc1ccc(Cl)cc1NC(=O)c1cccc([N+](=O)[O-])c1O	·	1.9	13.5	·	·	1.1%	·
CCOC(=O)C1=C(C)N=C2SC(C)C(=O)N2C1c1ccc(OC(C)=O)c(OC)c1 (stereo not given)	0.746	5.0	8.2	3.1	2.9	9.5%	-0.5
COC(=O)C1(C)NC(c2cccs2)C2C(=O)N(c3ccccc3F)C(=O)C21 (stereo not given)	0.685	-0.5	-2.7	-3.4	2.4	8.2%	-0.3
CCCCOC(=O)c1ccc(NC(=O)C(=O)NCCN(CC)CC)cc1	0.663	1.5	-1.1	-1.7	1.2	-3.8%	-0.3
CC1CC(C)CN(C(=O)/C=C/c2ccc(S(=O)(=O)N3CCOCC3)cc2)C1 (stereo not given)	0.701	1.9	17.0	-0.3	2.4	-7.2%	0.3
CCCCCCC(=O)N(O)C1CC(=O)N(c2ccccc2)C1=O (stereo not given)	·	·	·	1.3	·	-3.3%	0.4
Cc1nn(C2CCS(=O)(=O)C2)c(C)c1CN(C)C(=O)c1cccc(Cl)c1 (stereo not given)	0.64	2.5	-1.4	7.3	0.6	-10.9%	1.2
CCn1c(=NC(=O)CS(=O)(=O)c2ccccc2)sc2cccc(OC)c21	0.63	2.0	8.0	-0.2	-1.1	-5.9%	-2.0
O=C(O)C1C2CCC(C2)C1C(=O)NCCCn1ccnc1 (stereo not given)	0.703	-2.3	6.6	-0.4	2.1	·	1.7
O=C(NC(=S)NNC(=O)c1ccccc1[N+](=O)[O-])c1ccc(Br)cc1	0.696	0.6	-2.7	-7.3	4.1	-2.5%	-0.6
CN(CC(=O)Nc1ccccc1Br)C(=O)c1sccc1-c1ccccc1	0.631	0.1	-0.9	0.5	1.1	-2.2%	1.0
COCC(=O)N1CCC(Oc2ccc(C(=O)NC(C)c3nc(C)sc3C)cc2)CC1 (stereo not given)	0.712	0.3	-0.8	-1.3	2.1	·	-0.1
Cc1cc(C)nc(SCC(=O)OCC(=O)Nc2nc3ccccc3s2)n1	0.649	5.4	-1.5	3.4	3.1	3.2%	0.0
CC(=O)Nc1ccc(SCC(=O)Nc2ccccc2N2CCOCC2)cc1	0.725	2.2	-9.8	-2.3	3.5	-9.1%	-0.3
COc1ccc2nc(SCC(=O)N3CC(=O)Nc4ccccc43)c(C#N)cc2c1	0.721	6.2	12.1	5.2	-6.9	-54.6%	0.3
Nc1ccc(N=Nc2ccc(O)cc2)c(N)n1	·	13.4	5.3	·	·	81.3%	·
Cc1cnc(NC(=O)c2c(-c3ccccc3)noc2C)s1	0.668	0.4	-6.1	-1.4	0.1	-5.4%	-0.3
Cc1ccc(S(=O)(=O)N2CCCC(N3CCOCC3)C2)cc1Cl (stereo not given)	0.658	1.2	-16.1	3.2	-0.8	·	1.5
CC(C)(C)CNc1cc(N2CCOCC2)ccc1[N+](=O)[O-]	0.674	0.3	2.2	-12.0	6.6	-0.7%	-0.5
N#Cc1nc(-c2ccccc2Cl)oc1NCc1ccco1	0.648	-3.9	-6.7	-4.2	-7.8	0.7%	0.1
(further entries)
SMILES	E coli growth	HNF4A DNA FP	B2AR ag	LANA-H2A inh	UCH37 DUB inh	Vif TR-FRET	A1 inh
CCn1c(O)c(/C=C2\C=Nc3ccccc32)sc1=Nc1ccccc1	0.711	-1.3	-2.2	-1.2	4.4	-3.1%	-0.5
NNc1nc(-c2ccccc2)cc(-c2ccc(Br)cc2)n1	0.68	-2.6	20.3	-2.4	1.5	·	-0.1
Cc1ccc(/C=N/NC(=O)Cn2nnc(N)n2)o1	·	1.6	-3.8	2.3	·	4.1%	-0.6
CCN(CCCNC(=O)Cn1ncc2c([nH]c3ccc(C)cc32)c1=O)c1cccc(C)c1	0.621	2.3	10.7	6.1	-1.6	-1.0%	0.0
COc1cc(NS(=O)(=O)c2ccc(NC(C)=O)cc2)ncn1	0.685	-0.3	0.3	-7.6	0.5	4.5%	0.1
CC(/C=N/NC(=O)c1cccnc1)=C\c1ccccc1	·	-1.5	0.1	-3.5	·	-6.4%	-2.4
O=C(C1CCCCN1S(=O)(=O)c1ccccc1)N1CCN(Cc2ccccc2)CC1 (stereo not given)	0.685	3.5	-0.4	-0.9	1.1	-5.5%	0.4
Cc1cccc(-c2cc(C(=O)Nc3cccnc3)c3ccccc3n2)c1	0.657	1.4	3.1	-0.5	4.1	·	0.3
COc1ccc(-c2ccc(SCc3cccnc3)nn2)cc1OC	0.632	4.7	4.9	1.4	6.9	1.3%	-0.6
CCCOP(=O)(c1ccc(N(C)C)cc1)C(O)c1cc(OC)ccc1OC (stereo not given)	0.691	-2.6	-3.7	3.6	3.1	·	-0.2
Cc1ccc(NC(=O)CCNC(=O)Cn2cnc3ccccc3c2=O)cc1F	0.696	-0.8	-0.1	-1.1	-0.5	·	0.1
O=C(O)c1cc(-c2ccccc2)n(-c2ccc(Cl)cc2)n1	0.671	-0.2	-1.5	1.9	2.0	0.1%	0.1
CC(OC(=O)C1=COCCO1)C(=O)c1ccc(Br)cc1 (stereo not given)	0.692	3.8	-4.3	-1.3	3.7	-2.6%	1.1
O=C(c1cn[nH]c1)N1CCc2c([nH]c3ccccc23)C1c1c(F)cccc1Cl (stereo not given)	0.688	-1.6	2.8	-8.4	4.6	-4.0%	-0.6
CNC(=O)COc1ccc(S(=O)(=O)Nc2ccc(C)cc2)cc1	0.701	3.0	3.7	-0.4	-0.6	-7.7%	-0.3
COCCNC(=O)COc1ccc(Nc2ccccc2)cc1	0.726	0.4	-5.3	-3.3	1.3	7.0%	0.1
O=C(NC1C/C(=N/O)c2cc3c(cc21)OCO3)C(F)(F)F (stereo not given)	·	0.7	-0.7	1.2	·	-0.9%	-1.2
CCOC(=O)c1ccc(NCCc2ccc(OC)c(OC)c2)c(N)c1	0.652	4.8	7.0	1.0	-38.4	-5.0%	0.1
O=C(/C=C/c1ccc(Cl)cc1)NCc1ccco1	0.611	-4.8	-78.8	0.8	4.0	0.2%	-0.9
